VACV mCherry inh: vaccinia inhibition (mCherry reporter) | Vaccinia virus mCherry reporter infection, fluorescence; about a quarter of the inactives have no number | Potency, µM (titrated, usually from 36.5 µM), without a hit: top-dose activity change, negative = inhibition, actives largely listed as inhibitors | actives 0.63% (n = 310,000) | AID 720579; active = well fitted inhibition curve with a large enough effect; inconclusive = small, poorly fitted or top-dose-only effect; inactive = no such curve, though single readings can be large or run the other way; tested in A549 cells; further: nearly all actives have a fitted effect of over 35% in size; inactives centre near -10
VACV Venus inh: inhibitors of vaccinia virus (Venus reporter); Vaccinia virus Venus reporter expression, fluorescence; Potency, µM (titrated, usually from 36.5 µM), for inactives: at the highest dose activity change, negative = inhibition, usual class: inhibitors; actives 0.46% (n = 330,000); AID 720580; active means well fitted inhibition curve with a large enough effect; inconclusive means small, poorly fitted or top-dose-only effect; inactive means no such curve, though single readings can be large or run the other way; tested in A549 cells; further: nearly all actives have a fitted effect of over 30% in size; inactives centre near -10
Active calls of the source: *; i = inactive; ? = inconclusive; nt = not tested or not shown; & = joins results of further samples. On the % scale 0 is the no-effect control and ±100 the full control effect; potency means the concentration at half of the fitted maximal effect.

Below each SMILES: VACV mCherry inh | VACV Venus inh
- COCCN(CCNC(=O)c1ccc(NC2=NC3CS(=O)(=O)CC3S2)cc1)Cc1ccco1 (centres undefined)
  i | -13%
- N#C/C(=C\c1ccc(F)cc1)c1nc(-c2ccco2)cs1
  -15% | 8%
- CC[C@]12c3[nH]c4ccc(Cl)cc4c3CCN1C(=O)[C@@H](CC(=O)NC(C)(C)C)C[C@@H]2C(=O)N1CCN(C(=O)c2ccco2)CC1
  -11% | ?
- Fc1ccc(-c2ccc(Nc3cccc(F)c3)nn2)cc1
  i | -11%
- CCOC(=O)CSc1n[nH]c(NS(=O)(=O)c2ccccc2C(F)(F)F)n1
  -9% | -10%
- Cc1ccc2oc(C(=O)Nc3ccc(S(=O)(=O)Nc4onc(C)c4C)cc3)c(C)c2c1
  0% | -5%
- COc1ccc(CNC(=O)COC(=O)c2ccc(F)c(S(=O)(=O)N3CCOCC3)c2)cc1
  i | -7%
- CCc1nn(CC(=O)Nc2cc(C)cc(C)c2)c(=O)c2cc3sccc3n12
  -28% | ?
- COc1ccc(CNC(=O)C2CCN(S(=O)(=O)c3ccc(C)cc3)CC2)cc1
  -16% | -3%
- CCOC(=O)N1CCN(C(=O)CN2C(=O)NC(c3ccccc3)(c3ccccc3)C2=O)CC1
  -4% | -3%
- Cc1c(-c2ccccc2)sc(N)c1C(=O)N1CCOCC1
  -2% | -25%
- COc1ccccc1CNC(=O)CSc1ncc(S(=O)(=O)c2ccc(C)c(Cl)c2)c(=O)[nH]1
  -3% | 8%
- c1ccc2c(c1)ccc1nnc(SCc3ccc4c(c3)OCCO4)n12
  0% | -9%
- O=C(Nc1ccc(Cl)c(-c2nc3ccccc3[nH]2)c1)c1ccc2c(c1)OCO2
  ? | ?
- O=C(Nc1ccc(NC(=O)c2cccs2)cc1)c1ccco1
  -12% | -22%
- CC(C)Nc1ccc(-c2nc(-c3ccccn3)no2)cc1[N+](=O)[O-]
  -4% | 6%
- Cc1nn(Cc2ccc(Cl)cc2)c(Cl)c1/C=N/NC(=O)c1cccnc1
  i | -8%
- CCOC(=O)CNC(=O)N1CCCC(CCC(=O)NCc2ccc(F)c(F)c2)C1 (centres undefined)
  -2% | -5%
- CCC(=O)NC(c1cccc([N+](=O)[O-])c1)c1c(OC(C)=O)ccc2ccccc12 (centres undefined)
  nt | -29%
- O=C(COC(=O)CCc1nc2ccccc2c(=O)[nH]1)Nc1ccc(N2CCOCC2)cc1
  i | -8%
- COC(C/C=C\[C@H](O)COCc1ccccc1)OC
  i | -11%
- Cc1cc(C)cc(-n2cc[nH]c2=S)c1
  i | -13%
- CCOC(=O)CC1(CC(=O)OCC)NC(=O)c2c(C)sc(C(=O)OCC)c2N1
  -13% | -4%
- CCN(C(=S)NC(=O)C1CCCC1)C1CCCCC1
  -4% | -7%
- CCCCNC(=O)c1nn2cc(Br)cnc2c1Br
  -3% | -9%
- COc1ccc(OCCn2nnc3sc4c(c3c2=O)CCCC4)cc1
  2% | 2%
- CCCCn1c(N)c(N(CC(C)C)C(=O)c2ccc(S(=O)(=O)N3CCCCCC3)cc2)c(=O)[nH]c1=O
  -9% | -6%
- CN(C)C1(CN=Cc2cc(Cl)cc([N+](=O)[O-])c2O)CCCCC1
  -19% | 8%
- Cc1cc(NC(=O)CN2CC(C)OC(C)C2)n(-c2nc3ccccc3s2)n1 (centres undefined)
  -14% | -4%
- COc1ccc(CCNC(=O)c2ccc(NC(=O)CC3SC(N4CCCC4)=NC3=O)cc2)cc1 (centres undefined)
  -13% | -5%
- CCCCn1c(N)c(N(CC(C)C)C(=O)C2CCN(S(=O)(=O)c3ccc(C)cc3C)CC2)c(=O)[nH]c1=O
  i | -13%
- CC(C(=O)NCc1ccccc1Cl)N1C(=O)c2ccccc2C1=O (centres undefined)
  -6% | 3%
- COc1ccccc1Oc1ccc(S(=O)(=O)N2CCCCC2C)cc1 (centres undefined)
  ? | -7%
- COc1ccc(S(=O)(=O)N2CCCC(C(=O)NCc3ccccc3)C2)cc1 (centres undefined)
  -3% | -23%
- COc1ccc(-c2csc(Cc3nc(O)cs3)n2)cc1
  ? | -6%
- COc1cccc(-c2nc(Oc3cccc(C)c3C)c3ccccc3n2)c1O
  -15% | -8%
- COc1cc(C)c(CN2CCC3(CCC(CNC(=O)c4ccnn4C)O3)CC2)cc1C (centres undefined)
  i | -14%
- Cc1c(Cl)c(-c2n[nH]c(=S)n2CC(C)C)nn1C
  -2% | -5%
- CCn1c(CC2C(=O)N(C)c3ccccc32)nc2ccccc2c1=O (centres undefined)
  6% | 1%
- COc1cccc(/C=N/n2c(-c3n[nH]c4c3CCC4)n[nH]c2=S)c1OC
  i | 1%
- CC(=O)c1ccc(NC(=O)CN2C(=O)/C(=C/C(C)=C/c3ccccc3)SC2=S)cc1
  -12% | -5%
- CC(=O)N1CCc2cc(Br)cc(S(=O)(=O)CCC(=O)NCCc3ccc(Cl)cc3)c21
  -24% | -24%
- Cc1ccc(S(=O)(=O)N2[C@H](c3ccccc3)CC(=O)[C@@H]3CN(S(=O)(=O)c4ccccc4C)[C@H](c4ccccc4)C[C@@H]32)cc1
  i | -6%
- Clc1ccc(SCCOCCN2CCCCC2)cc1
  -24% | -14%
- COC(CNC(=O)c1ccc2c(c1)ncn2-c1ccc(F)cc1F)OC
  i | -7%
- COCCCNC(=O)c1sc2ncn(CC(=O)Nc3ccc(C)c(Cl)c3)c(=O)c2c1C
  i | -24%
- NC(N)=NS(=O)(=O)c1ccc(N/C=C\C(=O)c2ccncc2)cc1
  0% | -19%
- O=C1CC(c2ccncc2)c2cc3c(cc2N1)OCCO3 (centres undefined)
  nt | -6%
- Cc1sc2ncn(CC(=O)NCC(=O)N3CCC4(CC3)OCCO4)c(=O)c2c1C
  nt | -17%
- O=c1[nH]c(=S)[nH]c(O)c1/C=C1\C=Nc2ccccc21
  -18% | -11%

Further compounds:
Below each SMILES: VACV mCherry inh | VACV Venus inh
- Nc1nc(SCc2ccc([N+](=O)[O-])cc2)c2ncn([C@@H]3O[C@H](CO)[C@@H](O)[C@H]3O)c2n1
  -12% | -10%
- COc1ccccc1-c1cnc(C(O)c2ccc(CN3CCCC3)cc2)[nH]1 (centres undefined)
  12% | 7%
- CCCc1nc2c(c(=O)c3ccccc3n2C)c(=O)n1-c1ccc(F)cc1
  -10% | -7%
- CCOC(=O)CSc1nc(=O)n2ccc(C)cc2n1
  i | -6%
- CSCCC(NC(=O)c1ccccc1Br)C(=O)Nc1ccc(C)cc1 (centres undefined)
  -1% | -9%
- C/C(=N\Nc1nc2ccccc2nc1C)c1ccccc1O
  ? | -18%
- Cc1ccc2c(c1)[C@H]1[C@H](CO2)[C@H](c2ccccc2)[C@]2(C)C(=O)Nc3ccc(Cl)cc3C(=O)N12
  -24% | ?
- Cc1c(CCC(=O)O)c(=O)oc2cc(OCc3cccc(F)c3)ccc12
  i | -15%
- COc1ccc(-n2ncc(C(=O)N3CCN(Cc4ccccc4)CC3)c2C2CCN(C(=O)OC(C)(C)C)CC2)cc1
  -17% | -23%
- O=C1C(=O)N(CCO)C(c2ccccc2)/C1=C(\O)c1ccccc1 (centres undefined)
  20% | -3%
- CCOc1cccc2sc(N(CCN(CC)CC)C(=O)c3cccc(N4C(=O)CCC4=O)c3)nc12
  i | -9%
- O=C(CCCN1C(=O)c2ccccc2C1=O)Nc1cccc(S(=O)(=O)NC2=NCCC2)c1
  -14% | 0%
- Cc1nn(-c2ccccc2)nc1C(=O)Nc1cccc(C(=O)NC2CC2)c1
  -22% | ?
- O=C(NCc1ccncc1)c1nc(-c2ccc(C(F)(F)F)cc2)no1
  -28% | 3%
- COc1ccc(Cl)cc1NS(=O)(=O)c1c(C)nc2sccn2c1=O
  ? | -19%
- NC(=O)C1CCN(CC(=O)NC(=O)NC2CCCC2)CC1
  i | -10%
- OCCOCCn1c(C2CCCN2c2nc(-c3ccc(F)cc3)cs2)nc2cc(Cl)c(Cl)cc21 (centres undefined)
  -10% | ?
- Cc1ccccc1NS(=O)(=O)c1ccc(OCC(=O)NCc2ccccn2)cc1
  -11% | -7%
- O=c1cc(-c2ccccc2)nc(N2CCN(Cc3ccc4c(c3)OCO4)CC2)[nH]1
  nt | -10%
- CC(=O)Nc1ccc(Oc2cncc(Cl)c2)nc1
  -6% | 10%
- CN(C)C(CNC(=O)CCc1nc2cc(Cl)ccc2n(Cc2ccccc2)c1=O)c1ccccc1 (centres undefined)
  -21% | ?
- CCN(CC)CCCNC(=O)c1cn(CC)c2ccc(S(=O)(=O)N3CCc4ccccc4C3)cc2c1=O
  i | -12%
- CCCS(=O)(=O)NC(=O)C1(C)CCCN(C(=O)c2ccccc2OC(F)(F)F)C1 (centres undefined)
  -6% | -1%
- CCOC(=O)C1=CCC(c2cc3ccccc3[nH]2)NC1 (centres undefined)
  -10% | -6%
- COc1cc(/C=N\NC(=O)C2COc3ccccc3O2)cc(OC)c1O (centres undefined)
  -15% | -4%
- CC(=O)c1ccc(NC(=O)CSc2nc3[nH]ncc3c(=O)[nH]2)cc1
  i | -4%
- Cc1cc(OCc2cn(CC(=O)c3ccc(O)cc3)nn2)ccc1[N+](=O)[O-]
  i | -15%
- O=C(c1ccccc1NS(=O)(=O)c1cccc([N+](=O)[O-])c1)N1CCCC1
  -7% | -17%
- CCN(C[C@H]1N[C@@](CC)(C(=O)OC)[C@H]2C(=O)N(Cc3ccccc3)C(=O)[C@@H]12)C(C)=O
  i | -15%
- Cn1cnnc1SCC(=O)Nc1sc2c(c1C(N)=O)CCC2
  0% | -1%
- Cc1ccc(-n2ncc3c(NCCCN4CCCC4=O)ncnc32)c(C)c1
  -6% | 0%
- COCC(=O)N1CCC(Oc2ccc(C(=O)NC3CCOC(C)(C)C3)cc2)CC1 (centres undefined)
  -1% | -17%
- N#Cc1nc(-c2ccc(OCc3ccc(Cl)cc3)cc2)oc1N1CCCCC1
  15% | -5%
- COc1ccc(-c2nnc(SCC(=O)NCC3CCCO3)o2)cc1 (centres undefined)
  -4% | -5%
- O=C(NCCc1ccccc1)C1CCCN(S(=O)(=O)c2cccc3nonc23)C1 (centres undefined)
  nt | ?
- O=C(Oc1ccccc1N1C(=O)C2CCCCC2C1=O)c1ccccc1 (centres undefined)
  ? | ?
- CC1CCCC(C)N1NC(=O)c1cccc(S(=O)(=O)N2CCc3ccccc32)c1 (centres undefined)
  i | -10%
- COc1cccc(-c2nnc(SCCC(=O)O)n2C)c1
  -9% | -1%
- FC(F)(F)c1cc(-c2ccco2)nc(NCc2ccco2)n1
  -12% | -12%
- C[C@H](CO)N1C[C@H](C)[C@@H](CN(C)Cc2ccncc2)Oc2c(NC(=O)C3CCCCC3)cccc2C1=O
  i | -10%
- Cc1ccc(S(=O)(=O)CCc2ccccn2)cc1
  1% | 0%
- CCOc1ccccc1CNC(=O)c1cc2n(n1)CCCN(Cc1ccc(C)cc1)C2=O
  -17% | -17%
- Cc1cc(C(F)F)n2ncc(C(=O)N3CCc4ccccc4C3)c2n1
  nt | -13%
- O=C(NC1CC1)c1cc2c(s1)CS(=O)(=O)C2
  i | 5%
- COc1ccc(OC)c(NC(=O)CCNC(=O)Cn2cnc3ccccc3c2=O)c1
  -16% | -8%&3%
- CCOc1c(S(=O)(=O)N2CCCC2)ccc(Cl)c1Cl
  nt | -16%
- O=C(Nc1nccs1)c1ccc(Cl)cc1[N+](=O)[O-]
  i | -15%
- CC1(c2nnc(-c3cccc(Cl)c3)o2)CC(c2cccc(F)c2)=NO1 (centres undefined)
  i | -5%
- COc1ccc([N+](=O)[O-])cc1NC(=O)c1cn(-c2ccc(C)c(C)c2)c(=O)c2ccccc12
  -13% | -11%
- O=C(Nc1nnc(Cc2ccc(Cl)cc2)s1)c1ccco1
  -11% | -6%

Next structures.
Below each SMILES: VACV mCherry inh | VACV Venus inh
- COc1ccccc1C(=O)Nc1ccc2c(C)cc(=O)oc2c1
  -26% | -5%
- Nc1ncnc2c1ncn2[C@@H]1O[C@H](CNS(=O)(=O)c2ccc3c(c2)CCN(C(=O)C(F)(F)F)C3)[C@@H](O)[C@H]1O
  i | -9%
- CC1CCC(NC(=O)Cn2c(=O)oc3cc(S(=O)(=O)N4CCCC4)ccc32)CC1 (centres undefined)
  -8% | -21%
- COc1cccc(N2CCN(S(=O)(=O)c3cc(-c4cc(C)no4)ccc3C)CC2)c1
  -21% | -13%
- O=S(=O)(SC1=NCCN1)c1ccccc1
  i | 1%
- CCOc1ccc(NC(=O)N2CCC(n3c(=O)[nH]c4ccccc43)CC2)cc1
  10% | -5%
- COc1ccc(-c2nc3ccccc3o2)cc1NC(=O)c1ccc(OCC(C)C)cc1
  -12% | -12%
- CCOC(=O)C1(C)CCCN1C(=O)c1cccc(OC)c1 (centres undefined)
  6% | -13%
- O=C(CN1C(=O)CCSc2ccccc21)Nc1ccccc1F
  -4% | 5%
- O=C(Cc1ccc(O)cc1)N/N=C/c1cccs1
  -6% | -12%
- Cc1nc2ccc(S(=O)(=O)Nc3cccc(-c4nc5cccnc5s4)c3C)cc2s1
  0% | -14%

Bioassay records deposited in PubChem by National Center for Advancing Translational Sciences (NCATS).
